Sfp PPTase inh: Sfp phosphopantetheinyl transferase inhibition; Q9F4F7; Biochemical Sfp PPTase activity, qHTS; Potency, µM, inactives show max response, negative = inhibition, hits mostly inhibitors; 310,000 tested, 3.5% active; AID 1490; active = well fitted inhibition curve with a large enough effect; inconclusive = small, poorly fitted or top-dose-only effect, or another doubt; inactive = no such curve, though single readings can be large or run the other way;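 also: the enzyme is Sfp with the accession as filed and its product quenches rhodamine fluorescence; potency is read from the fitted curve at half-maximal effect; 0% = enzyme reaction without inhibitor and -100% = no enzyme wells; top concentration of the series not given in the record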
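Step 1, compound plus 15 nM Sfp-PPTase, 15 min, room temperature. Step 2, add rhodamine-CoA (5 uM) and BHQ-2-YbbR (12.5 uM). Step 3, read 525/598 nm fluorescence at 0 and 30 min.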
Six1-Eya2 blk: inhibitors of human Six1/Eya2 interaction; AlphaScreen GST-Six1/His-Eya2 binding, biochemical; hits give low values; control for the full effect not named in the record; activity change, % (no concentration beside the values); 360,000 tested, 0.56% active; in the data active = activity change below about -65%; inconclusive = about -30% to -65%; inactive = above about -30%; also: % is scaled to controls: 0 for no effect and ±100 for the full control effect; compound concentration not given in the record
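AlphaScreen luminescence read after one hour at 37 °C in darkness. Pin-transferred compounds met GST-Six1 and His-Eya2 protein (5X stock 250 nM/500 nM) plus glutathione donor and Ni-chelate acceptor beads (5X, 50 ug/mL).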
TRPV1 PAM: human TRPV1 potentiation. AID 540277. Q8NER1. potentiation, % at 8.33 µM. 320,000 tested, 0.02% active. TRPV1-expressing cells, Fluo-8 calcium influx, capsaicin EC20 potentiation; host cell line not named in the record; control for the full effect not named in the record; active means potentiation above 80%; inconclusive means 30% to 80%; inactive means below 30%; also: 0% is about no effect
Target sequence (Q8NER1 whole entry, looked up): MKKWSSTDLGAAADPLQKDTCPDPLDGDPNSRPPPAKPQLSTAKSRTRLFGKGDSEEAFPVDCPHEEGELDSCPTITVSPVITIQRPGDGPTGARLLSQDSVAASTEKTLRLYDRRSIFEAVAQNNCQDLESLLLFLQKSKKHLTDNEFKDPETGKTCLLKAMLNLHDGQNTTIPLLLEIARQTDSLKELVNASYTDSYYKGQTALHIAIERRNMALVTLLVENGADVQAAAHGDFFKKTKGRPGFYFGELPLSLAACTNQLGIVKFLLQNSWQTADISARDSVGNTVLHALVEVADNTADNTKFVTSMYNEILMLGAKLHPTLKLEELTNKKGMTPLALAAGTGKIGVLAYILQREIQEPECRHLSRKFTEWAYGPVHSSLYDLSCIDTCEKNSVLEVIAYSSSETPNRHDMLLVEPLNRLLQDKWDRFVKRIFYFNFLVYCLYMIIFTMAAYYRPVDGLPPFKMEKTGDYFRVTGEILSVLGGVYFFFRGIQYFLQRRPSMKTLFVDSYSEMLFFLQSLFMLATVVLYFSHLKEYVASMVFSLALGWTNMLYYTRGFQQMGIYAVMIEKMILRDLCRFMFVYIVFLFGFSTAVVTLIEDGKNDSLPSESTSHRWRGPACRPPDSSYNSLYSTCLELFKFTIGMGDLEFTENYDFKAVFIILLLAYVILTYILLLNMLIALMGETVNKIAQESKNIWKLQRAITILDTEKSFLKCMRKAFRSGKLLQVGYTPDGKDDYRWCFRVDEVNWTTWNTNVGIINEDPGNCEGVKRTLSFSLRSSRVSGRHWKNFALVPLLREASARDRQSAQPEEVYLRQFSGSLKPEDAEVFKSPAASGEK
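Fluo-8 calcium influx in TRPV1-expressing cells, kinetic read (ex 480/em 520 nm). Compound added and read 3 min for agonist activity, followed by capsaicin at EC20 final and 2 min further read for enhancement.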
D2 agonist: human D2 receptor agonism in beta-arrestin assay | P14416 | DiscoveRx PathHunter D2 beta-arrestin, luminescence, 90 min; 100% = 57 uM dopamine signal | activation, % (no concentration beside the values) | 360,000 tested, 0.084% active | AID 624465; in the data active = activation above about 40%; inconclusive = about 15% to 40%; inactive = below about 15%; also: compound concentration not given in the record; the text of the record calls up to 30% inactive
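Agonist mode: compounds alone added to overnight-plated D2 PathHunter cells for 90 min at 37 C, with 57 uM final dopamine (EC100) defining full response. Beta-arrestin recruitment detected by chemiluminescent reagent, read after 1 h at ambient temperature.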
CtBP-E1A blk: blocks the CtBP interaction with E1A; activity change, % (no concentration beside the values); 340,000 tested, 0.49% active; AlphaScreen GST-E1A/His-CtBP binding, 1536-well; hits give low values; control for the full effect not named in the record; AID 651724; in the data active means activity change below about -65%; inconclusive means about -30% to -65%; inactive means above about -30%; also: % is scaled to controls: 0 for no effect and ±100 for the full control effect; compound concentration not given in the record
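AlphaScreen with 125 nM GST-E1A and 125 nM His-CtBP (5X stocks) in Tris pH 8.0, 300 mM NaCl, BSA, Tween 20, TCEP. Compounds preincubated 2 h at 37 deg C, then glutathione donor/nickel acceptor beads added for 1 h at 37 deg C in dark.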
PINK1 modulator: PINK1 expression modulation | Potency, µM (titrated, usually from 76.6 µM), without a hit: at the highest dose activation (PINK1 increase), most hits filed as activators | 410,000 tested, 0.2% active | PINK1 immunofluorescence, high-content cytometry, 24 h; active = well fitted activation curve with a large enough effect; inconclusive = small, poorly fitted or top-dose-only effect; inactive = flat fitted curve, though single readings scatter; cell line not stated here;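 also: potency is read from the fitted curve at half-maximal effect; % of control where 0% means no effect; nearly all actives have a fitted effect of over 65% in size; a mitochondrial uncoupler was the plate control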
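PINK1 protein level read as immunofluorescence by microplate cytometer in a fixed, stained stable cell line after 24 h exposure to five compound concentrations, with CCCP as control.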
D2 PAM: human D2 receptor positive allosteric modulation; P14416; DiscoveRx D2 beta-arrestin cells, luminescence, 90 min; 100% = 57 uM dopamine signal; potentiation, % (test concentration not listed); 360,000 tested, 0.23% active; active = potentiation of 50% or more; inconclusive = 30% to 50%; inactive = 30% or less;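 also: compound concentration not given in the record; tested on top of an EC20 dose of dopamine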
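PathHunter D2 cells, attached overnight at 37 deg C, received compound in DMSO plus dopamine at EC20 (50 nM final) for 90 min at 37 deg C. Beta-arrestin recruitment was read as luminescence after 1 h with detection reagent at ambient temperature.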
An asterisk follows results filed as active; ? = inconclusive; . = not tested or not shown; [ ] = another dose, or the depositor's remark.

SMILES | Sfp PPTase inh | Six1-Eya2 blk | TRPV1 PAM | D2 agonist | CtBP-E1A blk | PINK1 modulator | D2 PAM
CN(C(=O)COc1ccccc1)C1CCS(=O)(=O)C1 (centres undefined) | -8% | 6 | 4 | -5.7 | 15 | 0.7% | 0
Cc1cccc(NC(=O)CSCC(=O)Nc2cc(S(=O)(=O)N3CCOCC3)ccc2N2CCCC2)c1 | 18% | -1 | 0 | -2.4 | 5 | 2.3% | -10
Cc1ccc(C(=O)N/N=C\C=C\c2ccc(Br)cc2)cn1 | 11% | 1 | -6 | 2.7 | . | 4.4% | -5
CC1(C)Oc2ccc(C(=O)NC3CCCCC3)cc2N(CC#N)C1=O | -3% | -3 | 14 | -0.2 | 4 | -0.6% | -2
CCOC(=O)c1c(C)[nH]c(C)c1C(=O)COC(=O)CNC(=O)c1ccc(OCC)cc1 | 19% | 3 | ? | -2.5 | 0 | -1.8% | -3
COc1ccc(-c2csc(C(NC(C)=O)c3ccccc3)n2)cc1 (centres undefined) | . | 10 | . | 3.7 | 4 | 0.0% | -6
COc1ccccc1OCC(=O)N(Cc1nnc(-c2ccccc2Cl)o1)C1CC1 | . | 1 | 18 | -2.9 | 3 | -4.2% | 7
Cc1ccc(S(=O)(=O)N2CCN(C(=O)COC(=O)COc3cccc(C(F)(F)F)c3)CC2)c(C)c1 | . | 1 | . | -2.7 | . | -0.1% | -5
NS(=O)(=O)c1ccc(CNC(=O)Cc2c(F)cccc2Cl)cc1 | 1% | 5 | 0 | 2.7 | 3 | -0.1% | 5
CN(C)c1cccc(C(=O)OCC(=O)NC(=O)NCc2ccccc2)c1 | . | -22 | . | 0.8 | -11 | 3.0% | -3
N#Cc1c(N)sc2c1CCN(C(=O)OCc1ccccc1)C2 | 20µM* | -8 | 5 | 2.1 | -7 | 0.2%[38.3 µM] | 0
CN1CCc2ccc(NC(=O)c3ccc(C(F)(F)F)cc3)cc2C1 | -11% | 0 | -1 | -2.6 | -2 | 0.2% | -4
COC(=O)[C@@]1(Cc2ccc(F)cc2)[C@H]2c3cc(C(=O)N4CCCC4)n(CCc4c[nH]c5ccccc45)c3C[C@H]2CN1C(=O)c1ccccc1 | 7% | -26 | . | . | -18 | 0.5% | .
CCCSc1nnc(-c2c[nH]c3ccccc23)n1C | 3% | 0 | 9 | -0.5 | -6 | 2.0% | -5
CC(=O)Nc1ccc2nc(SCC(=O)N3CCOCC3)sc2c1 | 22% | 12 | -4 | -0.3 | 2 | 1.5% | -1
O=C(NCC(c1ccco1)N1CCCC1)c1cccc(S(=O)(=O)Nc2ccc(F)cc2)c1 (centres undefined) | . | -6 | -4 | -2.7 | . | -0.3% | -14
O=C(N/N=C/c1cccnc1)c1cccs1 | -13% | 3 | -3 | -2.1 | -8 | 2.4% | -5
CCN(CC)Cc1c(C(=O)OC(C)C)nnn1-c1nonc1N | 20% | -8 | -1 | -3.6 | 2 | 2.8% | -3
Cc1ccc(S(=O)(=O)N2C[C@H]3[C@H]4C(=O)N(c5ccccc5)C(=O)[C@H]4C[C@H](OC(=O)NCc4ccccc4)[C@@]3(O)C2)cc1 | . | 4 | . | -6.2 | -4 | 0.6% | 4
Cc1ccc(C(=O)CSc2nnc(CNc3ccc(C)cc3C)o2)cc1 | -15% | -1 | -4 | -2.1 | -2 | 1.1% | -6
CC(C)NC(=O)c1cc2c(=O)n3ccccc3nc2s1 | 21% | 3 | -2 | -1.0 | 14 | -0.2% | -12
Cc1cc(C(=O)CSc2nnnn2C)c(C)n1Cc1ccco1 | -5% | 0 | 16 | -2.2 | 0 | 0.2% | -3
CCOC(=O)c1ccc(NC(=O)C2CC(=O)Nc3nc4ccccc4n32)cc1 (centres undefined) | 8% | -3 | 3 | -5.8 | -2 | -0.5% | 0
Cc1ccc(S(=O)(=O)NC(=O)COc2ccc([N+](=O)[O-])cc2)cc1 | 18% | 0 | 3 | -2.0 | -1 | 2.2% | -12
Cc1cc(C)cc(OCC(=O)Nc2cccc(-c3nnc(-c4ccco4)o3)c2)c1 | ? | 4 | 15 | 1.6 | 12 | -3.6%[38.3 µM] | -11

Going on with the list:
SMILES | Sfp PPTase inh | Six1-Eya2 blk | TRPV1 PAM | D2 agonist | CtBP-E1A blk | PINK1 modulator | D2 PAM
CCN(CC)S(=O)(=O)c1cccc(C(=O)OCC(=O)C23CC4CC(CC(C4)C2)C3)c1 | 11% | 7 | 4 | -1.6 | 1 | -37%[inhibitor][38.3 µM] | 7
COc1ccc(C(=O)N2CCC(n3c(C)nc4cc(F)ccc43)CC2)cc1 | 11% | -3 | 12 | 2.4 | 9 | -0.4% | -4
CCC(C)/C(C)=N/NC(=O)c1ccccc1OCCOc1ccccc1 (centres undefined) | 3% | 9 | -13 | -0.9 | -12 | 0.1% | -1
Oc1ccc(C[C@H]2CN([C@@H](Cc3ccc(O)cc3)CN3CCC[C@@H]3CN3C(=S)NC[C@@H]3Cc3ccccc3)C(=S)N2CCc2ccccc2)cc1 | . | -2 | . | 0.9 | -27 | 6.2% | -12
COc1ccc(C(=O)NC2CC2)cc1OC1CCN(Cc2ccc(F)cc2)CC1 | 8% | 1 | -4 | -6.8 | 4 | -0.7% | -37
COc1ccc(/C=c2\s/c(=C(/C#N)C(=O)NCc3ccco3)n(-c3ccccc3)c2=O)cc1 | -3% | -4 | 6 | -0.1 | 6 | 11% | -8
CC(=O)c1ccc(NC(=O)Cc2ccsc2)cc1 | 8% | -5 | -28 | 6.1 | 7 | 2.2% | -4
COc1cc(NC(=O)C2CCCN(S(=O)(=O)c3ccc4c(c3)CCCN4C(C)=O)C2)cc(OC)c1 (centres undefined) | 5% | ? | -12 | 1.5 | -65* | -1.2% | -19
COc1cc(C(=O)NNC(=O)c2ccccc2Br)ccc1OCC(=O)N1CCOCC1 | . | 5 | 1 | -0.7 | 1 | -3.9% | 7
CCCC(c1nnnn1CC1CCCO1)N1CCN(c2cc(Cl)ccc2C)CC1 (centres undefined) | 2% | -1 | 13 | -1.2 | 6 | 5.0% | -13
CC1=CCC2(CO)COC(c3ccccc3O)C1C2 (centres undefined) | 22% | -2 | 12 | -2.3 | 3 | 0.2% | 0
COC(=O)c1ccc(COC(=O)C2CCN(S(=O)(=O)c3c(Cl)cccc3Cl)CC2)o1 | . | -5 | -6 | -1.4 | 1 | 1.2% | -22
CCOC(=O)C1=C(C)NC(=O)NC1c1c(C)nn(-c2ccccc2)c1Cl (centres undefined) | 20µM* | 5 | 2 | -11 | 7 | 2.2% | -26
CCOC(=O)C1=C(NC(=O)c2ccc(Br)o2)Nc2ccccc2N=C1 | -1% | -1 | -3 | -3.7 | 8 | -0.1% | -13
COc1ccc(-c2cc(C(F)(F)F)n3nc(C)cc3n2)cc1 | 5% | 6 | . | -4.9 | 8 | 2.9% | -9
Cn1ccs/c1=N\C(=O)Nc1cccc(Cl)c1 | 9% | 0 | -4 | -6.0 | 1 | 1.2% | 1
CCOC(=O)C(=NCCCN1CCOCC1)NNc1cccc(C(F)(F)F)c1 | -13% | -2 | 6 | ? | -9 | -2.3% | 21
C=CCNCCCCOc1ccc(OCC)cc1 | 15% | 4 | -6 | -2.0 | 3 | 0.9% | -16
CCc1nc(SCC(=O)O)c2c3c(sc2n1)COC(C)(C)C3 | -3% | 14 | 6 | -0.7 | -17 | -1.8% | 0
CCNC(=O)CC1C(=O)N(c2ccc(F)cc2)C(=O)N1Cc1ccccn1 (centres undefined) | 10% | 1 | 10 | -0.9 | 1 | 3.5%[38.3 µM] | 6
Cc1cc(NC(=O)COC(=O)C(Cc2ccccc2)NC(=O)c2ccco2)no1 (centres undefined) | 8% | 1 | -4 | -3.6 | 1 | 0.1% | -18
Oc1ccc(/C=N/Nc2cccc(Cl)n2)c(O)c1 | 5% | -25 | 3 | ? | . | -1.1% | 4
Oc1cccnc1Sc1cccc(C(F)(F)F)c1 | . | 5 | . | -0.9 | 3 | 0.5% | 1
Cc1nnc(SCC(=O)c2ccc(Cl)cc2)s1 | -10% | 1 | -22 | 0.2 | -2 | 2.0% | -1
COc1ccc(-c2ccc(CCC(=O)O)n2CC(=O)Nc2cccc(OC)c2)cc1 | -11% | -2 | 7 | -4.4 | 0 | 0.3% | -2

Further entries.
SMILES | Sfp PPTase inh | Six1-Eya2 blk | TRPV1 PAM | D2 agonist | CtBP-E1A blk | PINK1 modulator | D2 PAM
CCNC(=O)c1ccc(N(C)S(=O)(=O)c2cccs2)cc1 | 16% | 9 | 3 | 2.7 | 6 | 1.7% | -6
CN1C(=O)CC(c2ccco2)Sc2ccccc21 (centres undefined) | 13% | -14 | ? | 0.0 | -14 | -1.8%[38.3 µM] | -1
CC(Cc1ccccc1)NC(=O)CC(c1ccccc1)c1ccccc1O (centres undefined) | 7% | 0 | -3 | -4.0 | -2 | 0.4% | -8
NNC(=O)c1cc2cc(Oc3ccccc3)ccc2[nH]1 | 21% | -4 | -2 | 4.1 | -2 | 4.1% | 1
CC(C)(C)OC(=O)C[C@H]1C/C=C\C[C@@H](CC(=O)N[C@@H](CO)Cc2ccccc2)C(=O)N2CCC[C@H]2COC1=O | . | 3 | . | 1.4 | 6 | 0.8% | -1
O=C(O)CCc1ccc(-c2ccccc2)o1 | -80% | -18 | -2 | -6.5 | -5 | -0.2% | -25
NC(=O)C1CCCN(C(=O)c2ccc(Cl)cc2)C1 (centres undefined) | 4% | 9 | 6 | 2.1 | 6 | 5.7%[38.3 µM] | -1
CN(C)c1nc(Cl)nc(N(C#N)CCOc2ccccc2)n1 | -3% | -14 | 4 | 4.1 | 26 | 3.3% | -17
O=C(O)CCCN1C(=O)C2C3CC(C2C1=O)C1C(c2ccccc2)c2sc(=O)n(-c4ccccc4)c2SC31 (centres undefined) | 2% | -5 | 21 | 2.5 | 4 | -1.5% | -3
COC(=O)CC1(C(=O)OC)Oc2ccc(Br)cc2C(=O)N1c1cc(Cl)c(Cl)cc1Cl (centres undefined) | 8% | 1 | 5 | 5.3 | . | 3.5% | -3
C=CCc1ccc(OCC(O)CO)c(OC)c1 (centres undefined) | 11% | 2 | 2 | 2.6 | 13 | -0.1% | -30
Cc1nn(C)c(C)c1NS(=O)(=O)c1ccccc1 | 13% | 0 | 2 | -0.6 | 4 | 1.2% | -7

An excerpt from above, showing only Six1-Eya2 blk, CtBP-E1A blk and PINK1 modulator:
SMILES	Six1-Eya2 blk	CtBP-E1A blk	PINK1 modulator
CN(C)c1nc(Cl)nc(N(C#N)CCOc2ccccc2)n1	-14	26	3.3%
O=C(O)CCCN1C(=O)C2C3CC(C2C1=O)C1C(c2ccccc2)c2sc(=O)n(-c4ccccc4)c2SC31 (centres undefined)	-5	4	-1.5%

From PubChem
